Source: PubChem
Mtb betalactam: beta-lactam sensitization of Mtb H37Rv; M. tuberculosis H37Rv growth with meropenem, percent inhibition; hits of this screen are not shown here; inhibition, % at 25 µM; 330,000 tested, 0.27% active; AID 434955;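 active = about 74% or more and at least 40 points above the plate without the antibiotic, then above 30% in a dose series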;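 also: growth measured after seven days incubation then overnight dye step; 0% = bacteria only wells and 100% = bacteria with antibiotic; twin plates without the antibiotic show which effects depend on it; some results filed as inactive read as strong as hits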
Arbovirus inh: blocks arbovirus infection; arbovirus infection cell-based antiviral screen; inhibition, % at 10 µM; 200,000 tested, 0.37% active;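 active = inhibition from about 30%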;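 also: bluetongue infection of BSR cells; cell survival read as ATP light after 72 h; 0% = infected wells without compound and 100% = uninfected wells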
YopH PTP inh: YopH (Yersinia) phosphatase inhibition; fluorescence Ex485/Em525; inhibition, %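 (about 10 µM by stock and volumes)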; 140,000 tested, 0.16% active; AID 898;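 active = inhibition of 50% or more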;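 also: controls were vehicle for no effect and minimum signal wells for full effect; inactives centre near -20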
RecA intein inh: inhibitors of M. tuberculosis RecA intein splicing. cell-free RecA intein splicing, fluorescence. AID 2221. 290,000 tested, 0.75% active. inhibition, %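 (about 9 µM by stock and volumes)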; in the data active = inhibition above about 30%;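 also: 0% = vehicle wells and 100% = reference inhibitor control wells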
Target sequence (P9WHJ3 whole entry, looked up): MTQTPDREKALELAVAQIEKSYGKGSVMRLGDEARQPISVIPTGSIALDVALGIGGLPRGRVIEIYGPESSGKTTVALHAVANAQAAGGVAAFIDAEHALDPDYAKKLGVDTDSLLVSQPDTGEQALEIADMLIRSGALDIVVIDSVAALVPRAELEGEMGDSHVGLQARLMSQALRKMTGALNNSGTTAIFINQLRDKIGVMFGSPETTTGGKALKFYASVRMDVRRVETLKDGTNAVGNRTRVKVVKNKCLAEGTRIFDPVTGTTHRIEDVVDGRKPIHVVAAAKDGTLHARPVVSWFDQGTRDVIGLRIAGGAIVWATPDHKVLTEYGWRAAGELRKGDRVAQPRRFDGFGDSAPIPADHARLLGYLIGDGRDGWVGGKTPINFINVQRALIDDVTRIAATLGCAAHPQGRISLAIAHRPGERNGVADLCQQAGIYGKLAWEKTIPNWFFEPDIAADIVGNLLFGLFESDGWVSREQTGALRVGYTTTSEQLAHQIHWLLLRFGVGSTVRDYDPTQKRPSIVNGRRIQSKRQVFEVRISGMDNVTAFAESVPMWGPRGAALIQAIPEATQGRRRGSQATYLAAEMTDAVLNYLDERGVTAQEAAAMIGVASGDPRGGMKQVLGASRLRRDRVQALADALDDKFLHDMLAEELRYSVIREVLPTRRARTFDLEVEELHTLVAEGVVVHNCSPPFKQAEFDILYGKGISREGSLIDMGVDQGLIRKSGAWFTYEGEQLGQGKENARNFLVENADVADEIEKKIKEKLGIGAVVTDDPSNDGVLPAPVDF
Mtb growth: M. tuberculosis H37Rv growth inhibitors, H37Rv strain (AID 1626) | M. tuberculosis H37Rv growth inhibition; higher % means a stronger effect | one-dose inhibition, % at 10 µM; IC50 in µM for titrated hits | 220,000 tested, 0.95% active;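 active = confirmed in a dose series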;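 also: bacteria incubated seven days before Alamar blue readout; 0% = bacteria only wells and 100% = bacteria with antibiotic wells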
Arbovirus inh repeat: recorded beside Arbovirus inh, whose call it bears; inhibition, %; measured here: 10K subset replicate screen; many hits read low in the repeat;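 first of two repeat runs on a subset; 0% = infected and 100% = uninfected wells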
Starred values were filed as active, the others as inactive; / = not tested or not shown. This is a subset (hit frequency here may not be typical).

SMILES	Mtb betalactam	Arbovirus inh	YopH PTP inh	RecA intein inh	Mtb growth	others
COc1ccc(NC(=O)c2ccc(N3C(=O)C4CC=C(Cl)CC4C3=O)cc2)cc1 (centres undefined)	4	/	/	-3.6	/
CCOc1ccccc1NC(=O)N1CCCC1C(=O)Nc1ccc(-n2cnnn2)c(C)c1 (centres undefined)	-3	24	-21	-1.1	-1%	Arbovirus inh repeat=-1
Cc1ccc(Sc2cc(N3CCOCC3)nc(-c3ccccc3)n2)cc1	-4	18	-31	-0.8	/
Cc1cccc(-n2c(Cn3nc(C)c([N+](=O)[O-])c3C)n[nH]c2=S)c1	-3	7	-7	0.1	-8%
CSc1ccc(S(=O)(=O)NCCCOC(C)C)cc1	8	10	/	4.8	9%
Cc1cc(C)n(S(=O)(=O)c2ccc(C)c(C)c2C)n1	-6	-1	3	-0.9	-7%
CC(C)C(=O)N1CCN(C2=NS(=O)(=O)c3ccccc32)CC1	-3	0	31	/	1%
COc1ccc(NC(=O)C(c2ccccc2)N(C)C(=O)c2ccc(=O)[nH]c2)cc1 (centres undefined)	4	1	-24	-1.1	-10%
CNC(=S)N(CCc1c(C)[nH]c2ccc(F)cc12)Cc1cccnc1	-7	/	/	0.2	/
Cc1ccc(Cn2nc(C)cc2C(=O)Nc2ccccc2Cl)cc1	0	/	/	-0.4	/
COCCN(C(=O)COC(=O)c1ccccc1Cc1ccccc1)c1c(N)n(Cc2ccccc2)c(=O)[nH]c1=O	1	/	/	-6.2	/
CC1CCCN(S(=O)(=O)c2ccc3c(c2)CCN3C(=O)C2CCC2)C1 (centres undefined)	2	3	-24	3.0	6%
CCOc1ccc(C2NC(=S)NC3=C2CCc2ccccc23)cc1 (centres undefined)	2	/	/	15	13%
COc1ccc(-c2noc3c2-c2nc(-c4cccc(C)c4)sc2CC3)cc1	-1	/	/	2.2	/
CC(=O)C1=C(O)C(=O)N(CCN(C)C)C1c1ccc(Cl)cc1 (centres undefined)	/	4	-31	-6.8	0%
C=CCn1c(SCC(=O)c2c(N)n(C)c(=O)n(C)c2=O)nnc1-c1ccccc1F	6	1	/	-0.3	4%
CCOC(=O)c1ccccc1N/C=C1\CCCCC1=O	5	-3	20	14	18%
Cc1nc2ccccc2c2oc(C(=O)Nc3ccc4c(c3)OCCO4)cc12	-3	9	-50	-4.0	10%	Arbovirus inh repeat=-2
O=C(c1cccc(N2C(=O)C3C4C=CC(C4)C3C2=O)c1)N1CCN(c2ccccc2F)CC1 (centres undefined)	5	/	/	-1.7	/
COc1cccc2sc(Nc3nc(C)c(C(C)=O)s3)nc12	-2	-16	-18	-3.2	12%
N#CC(c1ccccc1)N(CCCCl)C(=O)c1ccc(Br)cc1 (centres undefined)	-3	15	4	5.6	1%
O=C(NC1CCCC1)c1ccc(CSc2nc3ccncc3n2Cc2ccc(F)cc2)cc1	12	-6	-31	-5.7	19%
COC(=O)c1ccc(COc2cccc(C)c2C)cc1	-2	0	/	-5.8	6%
CCCNC(=O)C(=O)Nc1ccc(N(C)C)cc1	1	4	-15	-5.2	-1%
Cc1ccccc1OCC(=O)Nc1ccccc1-c1ccccc1NC(=O)COc1ccccc1C	-5	-8	-16	1.2	4%
SMILES	Mtb betalactam	Arbovirus inh	YopH PTP inh	RecA intein inh	Mtb growth	others
O=C(Cc1c[nH]c2ccccc12)Nc1ccc(N2CCOCC2)cc1	-6	11	/	-3.6	3%
Cc1nn(CC(=O)NCc2ccc(Cl)cc2)c(C)c1[N+](=O)[O-]	0	-9	-24	-1.2	0%
CC(C)(C)OC(=O)N1C[C@H](O)C[C@H]1C(=O)OCC(=O)c1ccc([N+](=O)[O-])cc1	8	/	/	-1.8	/
COc1ccc(NC(=O)CSc2n[nH]c(-c3ccncc3)n2)c([N+](=O)[O-])c1	4	/	/	-3.0	/
O=C(CCC(=O)N1CCN(c2ccccc2)CC1)Nc1nnc(C2CCCCC2)s1	-3	/	/	-0.7	-3%
CCn1nc(C)cc1C(=O)N1CCCC(CCC(=O)NCc2ccccc2F)C1 (centres undefined)	-5	5	/	0.8	2%
CCCCc1ccc(S(=O)(=O)N2CCN(C(=O)c3ccco3)CC2)cc1	-13	19	-19	14	5%
COC(=O)NCC(c1cccnc1)N1CCN(c2ccccc2)CC1 (centres undefined)	-7	-1	-32	-4.5	1%	Arbovirus inh repeat=-2
Cc1ccc(NS(=O)(=O)c2cc(C(=O)N3CCOCC3)ccc2C)cc1	-1	-2	-7	1.4	4%
Cc1ccc(CCNC(=O)c2ccc(CS(=O)(=O)Cc3ccc(F)cc3)o2)cc1	-2	/	/	-5.9	/
Nc1ccc2nc(-c3ccccc3)c(-c3ccccc3)nc2c1	5	/	/	-207	/
CC(C)CN(C(=O)CSc1nn(-c2ccc(Cl)cc2)c(=S)s1)C1CCS(=O)(=O)C1 (centres undefined)	4	-10	-17	2.2	6%
COc1cc(/C=N\NC(=O)C2C(=O)NCC2c2ccccc2)cc(OC)c1O (centres undefined)	-4	3	-7	-13	/
Cc1cc(N(C)NC(=S)Nc2ccccc2)nc(C)n1	6	1	-8	-5.1	3%
CCC(=O)Nc1nc2ccccc2n1CCN(C)C	2	1	-35	-1.4	1%
CCOc1ccc(CN2CCNC(=O)C2CC(=O)NCCC2=CCCCC2)cc1 (centres undefined)	-4	-8	/	1.2	-27%
O=c1oc(-c2ccccc2)cc(Cl)c1Cl	87	/	/	47*	/
CN(Cc1ccc(F)cc1)C(=O)c1cccc(S(=O)(=O)NCc2ccccc2)c1	-2	/	/	2.3	/
COc1ccc(OC)c2sc(N3CCCCC3)nc12	-6	0	-28	0.9	-7%
Cc1ccc(S(=O)(=O)/N=c2\scc(C)n2C)cc1	-7	/	/	0.1	/
OC1(c2ccccc2Cl)NN=C2CCCCCN21 (centres undefined)	-6	7	/	-0.9	-4%
Cc1ccc(C)c(-n2c(C)nc3ccccc3c2=O)c1	-1	/	/	-0.3	9%
C[C@@]12C(=O)N(c3cccc(F)c3)C(=O)N1[C@H](c1ccc(Cl)cc1)[C@@H]1C(=O)N(C3CCCCC3)C(=O)[C@@H]12	71	/	/	1.1	/
O=C(O)c1cscn1	-4	-1	-40	0.9	-6%
CC(=O)N(CN1C(=O)c2ccccc2C1=O)c1ccccc1	-4	3	-21	-0.8	-8%

Grouped by structure, the entries above containing two or more sulfur atoms
SMILES	Mtb betalactam	Arbovirus inh	YopH PTP inh	RecA intein inh	Mtb growth	others
CSc1ccc(S(=O)(=O)NCCCOC(C)C)cc1	8	10	/	4.8	9%
COc1cccc2sc(Nc3nc(C)c(C(C)=O)s3)nc12	-2	-16	-18	-3.2	12%
CC(C)CN(C(=O)CSc1nn(-c2ccc(Cl)cc2)c(=S)s1)C1CCS(=O)(=O)C1 (centres undefined)	4	-10	-17	2.2	6%
Cc1ccc(S(=O)(=O)/N=c2\scc(C)n2C)cc1	-7	/	/	0.1	/

Remaining list, next part
SMILES	Mtb betalactam	Arbovirus inh	YopH PTP inh	RecA intein inh	Mtb growth	others
CCOCC(=O)Nc1ccc(S(=O)(=O)NCC2CCCO2)cc1 (centres undefined)	3	/	/	-5.1	/
FC(F)(F)c1nc2nncn2c2c1CCCCC2	-5	1	-42	1.1	2%
CC(Sc1n[nH]c(N)n1)C(=O)Nc1ccccc1-c1ccccc1 (centres undefined)	-4	-1	/	-1.4	1%
COc1cccc(C2=NOC(C(=O)NC(C)C)C2)c1 (centres undefined)	-17	8	2	0.3	-1%
Cc1cc(=O)oc2c3c(cc(OCC(=O)NC4CC4)c12)OC(C)(C)CC3	-8	/	/	-2.2	/
O=C(CNS(=O)(=O)c1ccc(Br)s1)NCC1COc2ccccc2O1 (centres undefined)	-12	1	-35	0.7	3%
N#CCCn1nc(-c2ccccc2)cc1-n1c(C(F)(F)F)nc2ccccc21	-2	-3	-37	12	11%
Cc1ccccc1N1CN(Cc2ccco2)CNC1=S	-5	1	-17	7.5	6%
O=C(Nc1ccc(F)cc1)NC1CCCCCCC1	92	/	/	1.0	/
O=S(=O)(Nc1cc(F)ccc1F)c1cccc2nsnc12	-5	/	/	-0.9	/
COc1ccc(OC)c(N/C(N)=N/c2nc(C)cc(C)n2)c1	4	/	/	1.6	/
COC(=O)/C(=C\Nc1ccccc1)NC(=O)c1ccc(Cl)cc1Cl	-4	3	-50	0.1	-10%
CC(C)(C)c1ccc(/C=C(\C#N)C(=O)NC2CC2)cc1	-14	/	/	7.6	/
N#C[C@]1(S(=O)(=O)c2ccccc2)C[C@@H]2ON=C(c3cccc(Br)c3)[C@@H]2C1	-9	/	/	1.2	/
O=C(NNC(=O)c1cccnc1)c1ccncc1	-3	/	/	-6.7	/
CCCCc1nc2ccccc2c(NC(=O)CN2CCN(C)CC2)c1CCC	3	3	-22	-0.7	-4%
Cc1cc(C)cc(NC(=O)Nc2cc(S(=O)(=O)N(C)C)ccc2C)c1	-8	/	/	4.9	-6%
O=C1c2ccccc2C(=O)N1c1ccc(Cc2ccncc2)cc1	-11	/	/	1.8	-8%
CCOC(=O)c1ccc(NC(=O)CSc2nc3c(c(=O)n2C)SC(C)C3)cc1 (centres undefined)	-1	13	/	-2.3	6%	Arbovirus inh repeat=16
COc1cc(NC(=O)CCCNC(=O)c2ccc(Cl)cc2)cc(OC)c1	0	/	/	0.1	/
CC(C)NC(=O)c1ccccc1-c1nc(-c2ccccc2Cl)no1	-8	0	-24	9.8	-7%
O=C(NCCCN1CCCC1=O)c1ccc(S(=O)(=O)Nc2cccc(C(F)(F)F)c2)cc1	-9	/	/	-0.3	/
Cc1cc(C)c2cccc(N)c2n1	8	-11	/	14	-4%
Cc1ccc(NC(=O)C2CC(=O)n3c(nc4ccccc43)N2)cc1C (centres undefined)	0	/	/	-2.1	-6%
CC1=C(C(=O)Nc2ccccn2)C(c2ccc(Br)cc2)NC(=S)N1 (centres undefined)	-6	-13	-22	1.9	6%

Four entries from above, sorted by molecular weight, descending.
SMILES	Mtb betalactam	Arbovirus inh	YopH PTP inh	RecA intein inh	Mtb growth	others
N#C[C@]1(S(=O)(=O)c2ccccc2)C[C@@H]2ON=C(c3cccc(Br)c3)[C@@H]2C1	-9	/	/	1.2	/
CC1=C(C(=O)Nc2ccccn2)C(c2ccc(Br)cc2)NC(=S)N1 (centres undefined)	-6	-13	-22	1.9	6%
CCCCc1nc2ccccc2c(NC(=O)CN2CCN(C)CC2)c1CCC	3	3	-22	-0.7	-4%
O=C1c2ccccc2C(=O)N1c1ccc(Cc2ccncc2)cc1	-11	/	/	1.8	-8%

Next part.
SMILES	Mtb betalactam	Arbovirus inh	YopH PTP inh	RecA intein inh	Mtb growth	others
CC1c2cc3c(cc2CCN1S(=O)(=O)c1ccccc1)OCCCO3 (centres undefined)	-4	/	/	4.6	/
CCc1nnc2c(N(C)C)nc3ccccc3n12	-4	-2	-43	-2.9	-3%
COCCNC(=O)C(=O)NCC1OCCCN1S(=O)(=O)c1cccs1 (centres undefined)	9	13	-18	1.0	4%
Cc1nn(-c2ccccc2)c(C)c1-c1cc(C(=O)N/N=C/c2ccc(O)cc2)[nH]n1	3	/	/	7.3	-8%
S=C(Nc1cccc(Cl)c1Cl)NC1CCN(Cc2ccccc2)CC1	3	/	/	-1.1	/
COc1ccc(OC)c(NC(=O)CNC(=O)Cn2cnc3ccccc3c2=O)c1	1	0	-1	-0.4	-6%
COc1ccc(CCNC(=O)CCS(=O)(=O)c2ccc3c(c2)NC(=O)CO3)cc1OC	2	/	/	1.4	/
CCCC(=O)Nc1nc2ccc3nc(C)sc3c2s1	6	-14	-40	1.3	-7%
Cc1cc(Cl)ccc1Oc1nccc(N(C)C)c1C#N	-3	3	-36	-3.6	13%
CCC(CC)NC(=O)c1ccccc1Oc1ccccc1	-6	7	-16	-1.8	12%
COc1cc(NC(=O)c2ccccc2Cl)c(OC)cc1NC(=O)CN1CCCCC1	56	-20	/	1.5	-6%
CCOC(=O)C1(Cc2cccc(Cl)c2)CCCN(C(=O)C(C)(C)C)C1 (centres undefined)	-8	/	/	4.8	/
Cc1csc(SCC(=O)Nc2ccccc2)n1	-6	/	/	-3.0	/
CCOc1cc([C@@H]2C[C@H]3CN(c4ccccc4)C(=O)[C@]34CCCN24)ccc1OC	-8	-14	/	-3.6	3%
COc1ccc(/C=N/n2cnc3c([nH]c4ccccc43)c2=O)cc1COc1ccccn1	1	-3	/	0.4	3%
O=[S@]1Oc2ccccc2-c2ccccc21	26	/	/	-0.3	/
COc1cc(C(=O)Nc2cccc3c2CCCC3)cc(OC)c1OC	-3	/	/	2.0	/
Cc1ccc(NC(=O)CN(C)C(=O)CNC(=O)c2sc3ccccc3c2Cl)cc1	3	/	/	-2.0	/
O=C(N/N=C/c1ccc(-c2cccc(C(F)(F)F)c2)o1)c1ccccc1Br	4	-10	-15	-3.6	4%
O=C(NC1CCCCC1)[C@@H]1CC=C[C@@H]2CCN(C3CCCCC3)C(=O)[C@@H]21	2	/	/	1.0	1%
COC(=O)CCCC1=CC2=CC(=O)C(C)(OC(=O)CCc3ccccc3)C(=O)C2=CO1 (centres undefined)	8	/	/	-17	-4%
Cc1cnn(-c2cc(N/N=C/c3cccc(F)c3)ncn2)c1	4	-16	-4	0.8	-2%
